Screening results (PubChem)
GLA inh pH 4.5 – inhibitors of human alpha-galactosidase A at pH 4.5 | purified enzyme, 4-MU-alpha-Gal fluorescence, pH 4.5 | activity change, negative = inhibition, % at 105 µM | 230,000 tested, under 10 active | AID 1467; inconclusive = small, poorly fitted or top-dose-only inhibition, or a rising curve; inactive = flat fitted curve, though single readings scatter; no compound was filed as active;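 also: 0% = full activity with enzyme and -100% = basal without enzyme; dose as in the result columns while the protocol names 77 µM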
miR-21 reporter – miR-21 reporter, rising signal. Potency, µM (top dose mostly 38.3 µM), for the others: top-dose reporter change, positive = more light. 340,000 tested, under 10 active. HeLa miR-21 FLuc reporter, luciferase, 48 h; active = well fitted rising curve with a large enough effect; inconclusive = small, poorly fitted or top-dose-only effect; inactive = no such curve, though single readings can be large or run the other way;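 also: % of control where 0% means no effect; miR-21 action dims this reporter so a rising signal means less miR-21 action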
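Compounds were titrated across several concentrations (up to approximately 40 uM) and incubated 48 hours with HeLa miR-21-FLuc reporter cells (miR-21 target sequence downstream of FLuc, endogenous miR-21). Readout was firefly luciferase luminescence after lytic detection reagent.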
Rango-impB inh – prevents formation of the Rango-importin beta complex; Q14974; Rango CFP/YFP FRET sensor + importin beta, 45 min; Potency, µM (doses to about 92.2 µM), for the others: at the highest dose inhibition of complex formation; hit rate 0.031% among 340,000; AID 540263; active = rising FRET ratio curve, often small or poorly fitted; inconclusive = mostly compound fluorescence or quenching in the first reads; inactive = flat curves in all reads;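 also: potency is read from the fitted curve at half-maximal effect; 0% = DMSO wells and 100% = buffer wells lacking importin beta; nearly all actives have a fitted effect of over 15% in size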
Target sequence (Q14974 whole entry, looked up): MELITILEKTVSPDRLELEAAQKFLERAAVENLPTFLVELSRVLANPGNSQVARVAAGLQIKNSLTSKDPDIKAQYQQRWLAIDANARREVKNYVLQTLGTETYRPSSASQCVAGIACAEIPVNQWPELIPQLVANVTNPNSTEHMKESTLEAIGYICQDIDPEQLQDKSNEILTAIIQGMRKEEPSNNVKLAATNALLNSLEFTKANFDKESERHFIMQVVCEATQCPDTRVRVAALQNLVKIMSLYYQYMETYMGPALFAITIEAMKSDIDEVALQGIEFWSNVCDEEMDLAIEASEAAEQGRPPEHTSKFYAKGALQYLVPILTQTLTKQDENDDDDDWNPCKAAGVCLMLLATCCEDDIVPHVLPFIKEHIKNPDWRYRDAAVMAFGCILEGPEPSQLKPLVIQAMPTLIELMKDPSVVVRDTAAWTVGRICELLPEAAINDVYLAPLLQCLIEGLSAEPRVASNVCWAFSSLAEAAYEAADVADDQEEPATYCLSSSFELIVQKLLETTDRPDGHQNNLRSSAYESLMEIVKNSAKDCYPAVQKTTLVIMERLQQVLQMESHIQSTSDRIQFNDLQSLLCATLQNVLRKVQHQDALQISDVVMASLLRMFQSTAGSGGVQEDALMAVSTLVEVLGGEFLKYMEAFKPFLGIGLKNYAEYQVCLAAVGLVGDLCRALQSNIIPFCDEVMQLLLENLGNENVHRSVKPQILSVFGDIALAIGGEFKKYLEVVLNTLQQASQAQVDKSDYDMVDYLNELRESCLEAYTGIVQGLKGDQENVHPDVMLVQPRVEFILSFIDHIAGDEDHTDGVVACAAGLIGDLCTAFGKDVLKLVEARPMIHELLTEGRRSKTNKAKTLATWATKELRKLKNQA
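Inhibition scored from the CFP 486 nm/YFP 530 nm FRET ratio 45 min after adding 0.125 microM importin beta to 50 nM Rango biosensor preincubated 5 min with compound (room temperature, PBS with DTT, Tween-20, BSA). No-importin wells as positive control.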
Rango dissoc inh – inhibition of RanGTP-driven Rango-importin beta dissociation. Biochemical FRET Rango-importin beta, RanGTP-induced dissociation. Potency, µM (titrated, usually from 46.1 µM), without a hit: at the highest dose activity change, negative = inhibition. O95149+P62826. hit rate 0.071% among 340,000. AID 540253; active means falling FRET ratio curve, often poorly fitted, with flat reads before Ran was added; inconclusive means other falling curves, or compound fluorescence or quenching; inactive means flat or rising ratio curve;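 also: potency is read from the fitted curve at half-maximal effect; % of control where 0% means no effect; nearly all actives have a fitted effect of over 45% in size; -100% = wells without RanGTP and RCC1; the record marks most hits as doubtful in a second field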
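Quantitative HTS using a FRET biosensor: 0.1 uM Rango, 0.25 uM importin beta, 0.6 uM Ran, 2 mM GTP, 0.2 uM RCC1 final, PBS with DTT, Tween-20 and BSA. Post-read taken 45 min after Ran addition.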
The depositor's hits bear a star. Only part of the results is shown; count on the stated rates, not on these rows.

Cc1ccccc1Nc1nc2ccccc2s1 was read as GLA inh pH 4.5 3.9, miR-21 reporter -58.3%, Rango-impB inh 4.1% and Rango dissoc inh 16.0%.
Screening CCOc1ccc(N2C(=O)CC(N3CCN(c4ccc(C(=O)c5ccncc5)cc4)CC3)C2=O)cc1 (stereo not drawn) returned Rango-impB inh -0.9% and Rango dissoc inh 15.9%.
`O=C(CSc1nc(NS(=O)(=O)c2ccccc2)cc(=O)[nH]1)Nc1ccccc1C(F)(F)F` gave miR-21 reporter 0.8%, Rango-impB inh 3.8% and Rango dissoc inh 4.9%.
`O=C(c1cccc(Cl)c1)N1CCCC(c2ccc(Cl)cc2)=N1` gave GLA inh pH 4.5 -4.1, miR-21 reporter 6.4%, Rango-impB inh -0.2% and Rango dissoc inh -2.0%.
Screening O=C(CCCn1nnc(-c2cccnc2)n1)c1ccc(F)cc1 returned GLA inh pH 4.5 -0.2, miR-21 reporter -5.5%, Rango-impB inh 0.4% and Rango dissoc inh 9.0%.
Screening COc1cccc(/C=C(\C(=O)O)c2ccccc2)c1 returned GLA inh pH 4.5 5.2, miR-21 reporter -1.9%, Rango-impB inh -0.1% and Rango dissoc inh 0.3%.
For Cc1ccc(S(=O)(=O)N(Cc2ccc(F)cc2)Cc2ccco2)cc1 the results were GLA inh pH 4.5 -7.2, miR-21 reporter -3.8%, Rango-impB inh -1.2% and Rango dissoc inh -7.9%.
For CN(C)CC(C)(C)CNS(=O)(=O)c1ccc(OC(F)(F)F)cc1 the results were GLA inh pH 4.5 -11.5, miR-21 reporter -5.1%, Rango-impB inh -2.6% and Rango dissoc inh -3.3%.
For Cc1ccccc1C(=O)O/N=C(\N)c1cccc([N+](=O)[O-])c1 the results were GLA inh pH 4.5 11.8, miR-21 reporter -55.4%, Rango-impB inh -3.0% and Rango dissoc inh 0.4%.
Screening CCCSc1nnc(NC(=O)CSc2nc3[nH]c(=O)cc(O)c3s2)s1 returned Rango-impB inh -2.7% and Rango dissoc inh -21.4%.
For Cc1cc(=O)n2[nH]nnc2n1 the results were GLA inh pH 4.5 -0.6, miR-21 reporter -6.1%, Rango-impB inh 3.2% and Rango dissoc inh 22.3%.
Screening O=C1CCC/C=C\C[C@H](CC(=O)N(CCO)Cc2ccccc2)C(=O)N2CCC[C@@H]2CO1 returned Rango-impB inh -0.4% and Rango dissoc inh -2.2%.
COc1ccc(C(=O)O/N=C(/c2ccccc2)c2ccncc2)cc1OC was read as GLA inh pH 4.5 8.4, miR-21 reporter 1.5%, Rango-impB inh 0.3% and Rango dissoc inh -6.5%.
For O=C(Cn1nnc(-c2ccncc2)n1)N1CCc2ccccc21 the results were GLA inh pH 4.5 2.2, miR-21 reporter -2.5%, Rango-impB inh -0.3% and Rango dissoc inh -9.6%.
Screening CCOCCc1nnc(NC(=O)c2ccc(OC)c(OC)c2)s1 returned GLA inh pH 4.5 3.6, miR-21 reporter 7.8%, Rango-impB inh 3.1% and Rango dissoc inh 16.9%.
For COc1ccc(CCNC(=O)c2ccccc2NS(=O)(=O)c2c(F)cccc2F)cc1 the results were miR-21 reporter 0.3%, Rango-impB inh -1.8% and Rango dissoc inh 16.3%.
`Cc1ccc(CNC(=O)CN(C)S(=O)(=O)c2cccc3cccnc23)cc1` gave GLA inh pH 4.5 2.5, miR-21 reporter -8.1%, Rango-impB inh -0.3% and Rango dissoc inh 22.9%.
`NC(=O)NC(CC(=O)NNC(=O)c1ccccn1)c1ccc(Cl)cc1` (stereo not drawn) gave Rango-impB inh 3.7% and Rango dissoc inh 0.5%.
CN(CC(=O)Nc1ccccc1F)CC(=O)Nc1ccc(F)c(F)c1F was read as GLA inh pH 4.5 -1.9, miR-21 reporter -7.4%, Rango-impB inh 0.8% and Rango dissoc inh -0.1%.
C=CCN(c1ccc(C(=O)Nc2ccc(C)c(C)c2)cc1)S(C)(=O)=O was read as GLA inh pH 4.5 6.8, miR-21 reporter -7.8%, Rango-impB inh 2.7% and Rango dissoc inh 5.7%.

Copied from above (3 entries):
Screening O=C1CCC/C=C\C[C@H](CC(=O)N(CCO)Cc2ccccc2)C(=O)N2CCC[C@@H]2CO1 returned Rango-impB inh -0.4% and Rango dissoc inh -2.2%.
COc1ccc(C(=O)O/N=C(/c2ccccc2)c2ccncc2)cc1OC was read as GLA inh pH 4.5 8.4, miR-21 reporter 1.5%, Rango-impB inh 0.3% and Rango dissoc inh -6.5%.
For O=C(Cn1nnc(-c2ccncc2)n1)N1CCc2ccccc21 the results were GLA inh pH 4.5 2.2, miR-21 reporter -2.5%, Rango-impB inh -0.3% and Rango dissoc inh -9.6%.

(next part)
Screening N#CC(C#N)=C1C=CC=CN1/C(=C\c1ccccc1)C(=O)c1cccs1 returned GLA inh pH 4.5 -13.6, miR-21 reporter -33.5%, Rango-impB inh inconclusive and Rango dissoc inh inconclusive.
`Cc1cc(C)cc(N(CCC#N)C(=O)COC(=O)CN2C(=O)NC(C)(C)C2=O)c1` gave Rango-impB inh 1.2% and Rango dissoc inh 0.9%.
`NS(=O)(=O)c1ccc(N2N=C(c3ccccc3)CC2c2cccc(Br)c2)cc1` (stereo not drawn) gave Rango-impB inh inconclusive and Rango dissoc inh 16.7%.
`CC(NC(=O)c1ccccc1F)c1nnc(SCC(=O)NC2CCCC2)n1C` (stereo not drawn) gave miR-21 reporter 0.9%, Rango-impB inh 1.0% and Rango dissoc inh -5.3%.
For CC(=O)Nc1ccc(C(=O)COC(=O)Cc2ccsc2)c(F)c1 the results were Rango-impB inh -0.3% and Rango dissoc inh -4.0%.
`CCOC(=O)C1CCCN(C(=O)c2ccc(OCC)cc2)C1` (stereo not drawn) gave GLA inh pH 4.5 -8.0, miR-21 reporter -2.3%, Rango-impB inh 3.2% and Rango dissoc inh 1.0%.
COc1cc(CC(=O)OCC(=O)NC2CCCC2)cc(OC)c1OC was read as Rango-impB inh 1.9% and Rango dissoc inh 6.5%.
`CN(c1ccccc1)c1cc(=O)[nH]c(=O)[nH]1` gave GLA inh pH 4.5 6.4, miR-21 reporter -9.5%, Rango-impB inh 0.0% and Rango dissoc inh 3.8%.
Cc1ccc(NC(=O)CSc2nncn2-c2ccccn2)cc1Cl was read as miR-21 reporter 1.9%, Rango-impB inh -0.5% and Rango dissoc inh 15.0%.
Screening COc1ccccc1CNC(=O)c1ccccc1N(C)S(C)(=O)=O returned GLA inh pH 4.5 4.9, miR-21 reporter -1.3%, Rango-impB inh 3.8% and Rango dissoc inh -3.7%.
CCOC(=O)CC1C(=O)NCCN1Cc1ccc(OC)c(OC)c1 (stereo not drawn) was read as GLA inh pH 4.5 3.6, miR-21 reporter -2.3%, Rango-impB inh 1.5% and Rango dissoc inh 4.9%.
Screening FC(F)(F)c1ccccc1-n1c(-c2ccco2)n[nH]c1=S returned miR-21 reporter -22.8%, Rango-impB inh -6.2% and Rango dissoc inh -13.4%.
Screening COc1ccc(/C=C2\SC(=S)N(CC(=O)NC3C=CS(=O)(=O)C3)C2=O)cc1 (stereo not drawn) returned miR-21 reporter -0.3%, Rango-impB inh inconclusive and Rango dissoc inh -3.3%.
O=c1[nH]c2ccccc2n2c(C(F)(F)F)nnc12 was read as miR-21 reporter -5.0%, Rango-impB inh 2.7% and Rango dissoc inh 0.6%.
Screening COc1cccc(OCCc2c(C)n[nH]c2C)c1 returned GLA inh pH 4.5 -4.0, miR-21 reporter -1.9%, Rango-impB inh -0.3% and Rango dissoc inh -7.1%.
For CC(=O)N1CCN(c2ccc(NC(=O)c3ccc([N+](=O)[O-])cc3Cl)cc2)CC1 the results were miR-21 reporter 0.2%, Rango-impB inh 1.9% and Rango dissoc inh 22.6%.
Screening C=CCSc1nnc(-c2cc3c(s2)-c2ccccc2CC3)o1 returned GLA inh pH 4.5 inconclusive, miR-21 reporter -40.5%, Rango-impB inh -3.2% and Rango dissoc inh 0.8%.
Screening Cc1cc(C)c(-c2c(O)c3ccccc3n(C)c2=O)c(C)c1 returned Rango-impB inh 6.1% and Rango dissoc inh -9.7%.
For COc1ccc(-c2ccc(CCC(=O)O)n2CC(C)C)cc1 the results were GLA inh pH 4.5 14.2, miR-21 reporter 9.2%, Rango-impB inh inconclusive and Rango dissoc inh inconclusive.
For O=[N+]([O-])c1ccc(-n2nncc2-c2ccc(Cl)cc2)cc1 the results were GLA inh pH 4.5 4.6, miR-21 reporter -8.3%, Rango-impB inh -4.6% and Rango dissoc inh -13.2%.
Cc1ccc(Nc2oc(C)nc2C#N)cc1 was read as GLA inh pH 4.5 0.1, miR-21 reporter -37.9%, Rango-impB inh -1.3% and Rango dissoc inh -9.2%.
`O=C(c1ccc2nc(Cc3cccc(Cl)c3)oc2c1)N1CCC[C@H]1CO` gave miR-21 reporter -12.6%, Rango-impB inh -4.8% and Rango dissoc inh 4.0%.
O=C(CCS(=O)(=O)c1ccccc1)Nc1cccc2c1C(=O)NC2=O was read as GLA inh pH 4.5 4.4, miR-21 reporter 2.9%, Rango-impB inh -3.8% and Rango dissoc inh -17.5%.
O=C(COC(=O)Cc1ccc(-c2ccccc2)cc1)NCc1ccccc1 was read as GLA inh pH 4.5 13.0, miR-21 reporter -6.2%, Rango-impB inh 0.6% and Rango dissoc inh -4.6%.
`C=CCn1c(C)cc(C(=O)CN2C(=O)NC3(CCCc4ccccc43)C2=O)c1C` (stereo not drawn) gave GLA inh pH 4.5 -7.6, miR-21 reporter -21.2%, Rango-impB inh -2.6% and Rango dissoc inh 0.3%.
COc1cc2c(cc1OC)[C@@H](NC(=O)c1ccc(C(F)(F)F)cc1)[C@H](OCc1ccccc1)C2 was read as Rango-impB inh 1.3% and Rango dissoc inh -19.7%.
`Cc1ccc(NC(=O)C2(S(=O)(=O)c3ccc(Cl)cc3)CC2)c(Br)c1` gave miR-21 reporter -3.5%, Rango-impB inh 2.4% and Rango dissoc inh 7.0%.
For CCN(CC)S(=O)(=O)c1ccc(-n2c(=O)c(C(C)C)c(C)n2C)cc1 the results were GLA inh pH 4.5 4.6, miR-21 reporter -4.7%, Rango-impB inh 0.8% and Rango dissoc inh 14.1%.
For Cc1ccc(C(=O)c2c3ccccc3[n+]([O-])n2CCC(=O)O)cc1 the results were Rango-impB inh 0.9% and Rango dissoc inh 1.4%.
For Cc1ccccc1NC(=O)Cc1nc(COC(=O)c2ccc(O)cc2O)cs1 the results were miR-21 reporter -0.5%, Rango-impB inh 0.9% and Rango dissoc inh -2.7%.
Screening O=C(NNc1nc2ccccc2s1)Nc1ccccc1 returned GLA inh pH 4.5 0.4, miR-21 reporter -65.5%, Rango-impB inh -0.3% and Rango dissoc inh 11.1%.
O=c1nc(C(F)(F)F)nc2ccccn12 was read as GLA inh pH 4.5 -3.8, miR-21 reporter -5.2%, Rango-impB inh 1.8% and Rango dissoc inh -6.5%.
For COc1cccc(CNC(=O)c2ccccc2NC(=O)C2=C(C)OCCS2)c1OC the results were miR-21 reporter 13.9%, Rango-impB inh 0.0% and Rango dissoc inh 1.9%.
Screening CCOC(=O)Cc1ncccc1C(=O)Nc1ccc(OC)cc1 returned GLA inh pH 4.5 -14.4, miR-21 reporter -1.2%, Rango-impB inh 5.0% and Rango dissoc inh 6.0%.
`Cc1ccc(C(=O)N2N=C(c3ccccc3O)CC2c2ccccc2)cc1` (stereo not drawn) gave miR-21 reporter -2.8%, Rango-impB inh -2.2% and Rango dissoc inh -14.4%.
`CC(C)=NNc1cc([N+](=O)[O-])cc2c1C(=O)N(C)S2=O` (stereo not drawn) gave GLA inh pH 4.5 8.0, miR-21 reporter -2.7%, Rango-impB inh 0.5% and Rango dissoc inh 0.3%.
`COc1cc(NC(=O)c2cccc(C)c2)c(OC)cc1NC(=O)CN1CCCCC1` gave GLA inh pH 4.5 -1.9, miR-21 reporter 7.1%, Rango-impB inh 0.3% and Rango dissoc inh -1.1%.
Screening COc1ccc(C2=NOC3(CC(=O)N(c4ccc(F)cc4)C3=O)C2)c(OC)c1 (stereo not drawn) returned GLA inh pH 4.5 0.6, miR-21 reporter 0.3%, Rango-impB inh 6.2% and Rango dissoc inh 2.6%.
Screening CC(=O)Nc1sc2c(c1CN1CCN(c3ccccn3)CC1)CCCC2 returned GLA inh pH 4.5 9.6, miR-21 reporter -4.4%, Rango-impB inh -3.8% and Rango dissoc inh -3.5%.
